VACV Venus inh = vaccinia inhibition (Venus reporter); Vaccinia virus Venus reporter expression, fluorescence; Potency, µM (series often up to 36.5 µM), without a hit: at the highest dose activity change, negative = inhibition, hits mostly inhibitors; 0.46% of 330,000 active; active means well fitted inhibition curve with a large enough effect; inconclusive means small, poorly fitted or top-dose-only effect; inactive means no such curve, though single readings can be large or run the other way; tested in A549 cells; further: nearly all actives have a fitted effect of over 30% in size; inactives centre near -10
Vaccinia mCherry = vaccinia inhibition (mCherry reporter). Vaccinia virus mCherry reporter infection, fluorescence; about a quarter of the inactives have no number. Potency, µM (series often up to 36.5 µM), without a hit: at the highest dose activity change, negative = inhibition, usual class: inhibitors. 0.63% of 310,000 active; active = well fitted inhibition curve with a large enough effect; inconclusive = small, poorly fitted or top-dose-only effect; inactive = no such curve, though single readings can be large or run the other way; tested in A549 cells; further: nearly all actives have a fitted effect of over 35% in size; inactives centre near -10
* = called active by the depositor; i = inactive; ? = inconclusive; . = not tested or not shown; & = joins results of further samples; [ ] = dose if it differs, or a comment. On the % scale 0 is the no-effect control and ±100 the full control effect; potency means the concentration at half of the fitted maximal effect.

Every second line gives: VACV Venus inh, Vaccinia mCherry
- CN1OC[C@@H]2CN(S(=O)(=O)c3cccc(C(F)(F)F)c3)[C@H](c3ccc(-c4cccnc4)cc3)C[C@@H]21
  -29.8%, -9.3%
- CC(=O)C1CCC2C3CCC4CC(O)CCC4(C)C3CCC12C#N (stereo not drawn)
  -16.2%, i
- Nc1ccc(-c2nc3ccccc3s2)cn1
  -3.2%, -4.4%
- Cc1ccc(SCc2cc(=O)c3c(=O)n(-c4ccccc4)[nH]c3[nH]2)cc1
  -6.9%, 3.3%
- Cc1ccc(C)c(NC(=O)CN(C)C(=O)C2CCN(C(=O)Nc3ccccc3)CC2)c1
  -5.4%, -3.2%
- COc1cccc(S(=O)(=O)NCc2ccc(C(=O)Nc3cccc(Cl)c3)cc2)c1
  ?, .
- CN(C)S(=O)(=O)c1cccc(N=C2NN=C(c3ccccc3)CS2)c1
  ?, ?
- CCOC(=O)[C@]12CCCC=C1N(Cc1ccco1)C(=O)[C@H](CC(=O)NCCc1ccccc1OC)C2
  -14.5%, -19.3%
- CC(=O)Nc1ccc(S(=O)(=O)N[C@H](C(=O)O)C(C)C)cc1
  4.9%, .
- COc1cc(OC)cc(C(=O)N/N=C2/SCC(=O)N2Cc2ccco2)c1
  -6.5%, -3.9%
- COC(=O)c1sc(-c2ccccc2)cc1NC(=O)c1cc(OC)cc(OC)c1
  -3.2%, -15.0%
- COc1ccc(S(=O)(=O)N2CCCC2CNC(=O)C(=O)NC2CCCCCC2)cc1 (stereo not drawn)
  -3.8%, i
- c1ccc(CN2CCN(c3nc4ccccc4s3)CC2)cc1
  -17.4%, i
- COc1cc(CNCCc2c[nH]c3ccccc23)cc(Cl)c1OCC(N)=O
  -9.2%, i
- CCN(CC)S(=O)(=O)c1ccc(C(=O)N(c2ccc(C)cc2)C2C=CS(=O)(=O)C2)cc1 (stereo not drawn)
  -10.7%, -3.6%
- CCCc1nnc(NC(=O)CC(=O)Nc2ccccc2C(=O)O)s1
  -3.8%, .
- COc1ccc(OCC(=O)Nc2cc3c(cc2C(=O)O)OCCCO3)cc1
  -3.3%, -11.4%
- CN1C(=O)C2(SCC(=O)N2c2ccc(F)cc2)c2ccccc21 (stereo not drawn)
  8.3%, -8.1%
- S=C(Nc1ccc(Cl)cc1)N1CCN(Cc2ccccc2)CC1
  -9.8%, -19.8%
- CCn1cc(/C=N/NC(=O)COc2cccc3cccnc23)c2ccccc21
  -26.8%, -9.7%
- CN=C(SCc1cc2c(cc1Cl)OCO2)c1c(O)n(C)c(=O)n(C)c1=O
  -24.4%, i
- O=C(Nc1ccc(Cl)cc1Cl)N1CCN(c2ncccn2)CC1
  -4.6%, -7.2%
- CC(=O)Nc1ccc(NC(=O)c2ccc3c(c2)N(Cc2cccc(Cl)c2)C(=O)c2ccccc2S3=O)cc1 (stereo not drawn)
  -9.7%, -12.4%
- CCc1ccc(N(CC(=O)Nc2sc3c(c2C(=O)OC)CCCC3)S(C)(=O)=O)cc1
  -2.7%, -10.7%
- CCCc1nnc(SCC(=O)Nc2cccc(Cl)c2Cl)o1
  -3.4%, 6.7%
- COc1cc(C(CCN2CCOCC2)c2c(OC)cc(OC)c3c(-c4ccccc4)cc(=O)oc23)cc(OC)c1OC (stereo not drawn)
  -15.6%, -7.3%
- CCOC(=O)[C@H]1[C@H]2COc3ccc(Cl)cc3[C@@H]2N2C(=O)CNC(=O)[C@@]12C
  -12.3%, i
- O=C(CN(C(=O)CCC(=O)Nc1nccs1)C1CCCC1)NCc1ccc2c(c1)OCO2
  -2.3%, -7.1%
- COc1ccccc1NC(=O)N1CCN(C)CC1
  -2.3%, i
- O=C(Nc1cc(S(=O)(=O)N2CCCC2)ccc1OCC(F)(F)F)c1ccc(F)cc1
  3.9%, -11.7%
- CCc1ccc(-n2c(=O)c3c4c(sc3n(CC(=O)NCCCOC)c2=O)CCCC4)cc1
  -3.0%, -11.0%
- Cc1ccc(Cc2c(-c3ccccc3)nc3ccc(Br)cn23)cc1
  -5.0%, i
- Cc1ccc2nc(NC(=O)[C@H](C)N3C(=O)C4CC=CCC4C3=O)sc2c1 (stereo partly drawn)
  -4.1%, 1.0%
- NC(=O)c1cccnc1Nc1cccc(F)c1
  -5.0%, -3.0%
- O=C(CSc1nc2ccccc2[nH]1)NC1CCCc2ccccc21 (stereo not drawn)
  -16.0%, -13.5%
- Cc1ccc(NC(=O)CN2C(=O)COc3ccc(S(=O)(=O)Nc4ccccc4)cc32)c(C)c1
  -3.0%, -19.9%
- COc1ccc(-c2nc(CSCC(=O)N3CCN(C(=O)c4ccco4)CC3)c(C)o2)cc1OC
  6.3%, -11.5%
- CN(C)c1ncc(S(=O)(=O)c2ccc(Cl)cc2)c(-c2ccc(Cl)cc2Cl)n1
  -13.2%, i
- Cc1ccc(NC(=O)C(Nc2ccccc2)c2ccccc2)cc1 (stereo not drawn)
  -10.0%, -8.7%
- c1ccc2[nH]c(CN3CCCCC3)nc2c1
  -3.4%, -14.5%
- COc1ccc(-c2nc(Cn3c(SCc4ccc(C)cc4)nc4cccnc43)c(C)o2)cc1OC
  -23.8%, -27.5%
- COc1ccc(/C(C)=N/Nc2ccccc2Cl)c(O)c1
  -2.5%, -16.3%
- CCc1ccc(OCC2c3cc(OC)c(OC)cc3CCN2C(=S)NCCOC)cc1 (stereo not drawn)
  -20.8%, -21.5%
- CCCCOCCCNC(=O)c1ccc(NC(C)=O)cc1
  -8.1%, -10.5%
- CC(=O)Nc1nnc(CCS(=O)(=O)c2ccc(C)cc2)s1
  -17.1%, i
- S=c1[nH]nc(COc2ccc(Cl)cc2)n1Cc1ccco1
  2.3%, -8.1%
- CCc1nnc(NC(=O)CCC(=O)N2CCN(Cc3cc(F)ccc3OC)CC2)s1
  -21.2%, .
- COc1ccc(CSc2nncn2N)cc1Br
  -21.4%, .
- O=C(O)c1cccc2c1NC(c1cccc([N+](=O)[O-])c1)C1CC(Sc3ccccc3[N+](=O)[O-])C(Cl)C21 (stereo not drawn)
  -14.6%, -12.5%
- C[C@H](CO)N1C[C@H](C)[C@@H](CN(C)C(=O)NC2CCCCC2)Oc2c(NC(=O)C3CC3)cccc2C1=O
  -18.4%, i
- COc1ccc(CCNC(=O)c2ccc3c(c2)N(Cc2ccc(F)cc2)C(=O)c2ccccc2S3(=O)=O)cc1OC
  -5.1%, -16.8%
- COc1cccc(C(=O)NC(=S)Nc2ccc3[nH]c(=O)[nH]c3c2)c1
  -7.4%, -13.9%
- CSc1nc(C)cc(OCC(=O)N2CCOCC2)n1
  0.0%, -6.4%
- Cc1cc(C)c(C(=O)N2CCCC(CNS(=O)(=O)N(C)C)C2)o1 (stereo not drawn)
  -4.8%, i
- CC1CCN(c2nnc(N3CCC(C)CC3)c3ccccc23)CC1
  -7.7%, -13.9%
- CC(=O)c1ccccc1OCC(O)CN1CCN(CCN2C(=O)c3cccc4cccc(c34)C2=O)CC1 (stereo not drawn)
  ?, -20.6%
- COc1cccc(C(NC(C)=O)c2nc(-c3cccnc3)cs2)c1 (stereo not drawn)
  0.9%, i
- Cc1ccc(Cl)cc1NC(=O)N1CCC(CN2CCc3ccccc3C2)CC1
  -10.1%, -4.0%
- O=C(CCCCCNC(=O)c1ccccc1)N/N=C/c1ccc(O)cc1O
  4.3%, -4.9%
- O=C(CSc1n[nH]c(=O)n1C1CC1)Nc1ccc(OC(F)(F)F)cc1
  -19.9%, -6.3%

Remaining list, next part:
Every second line gives: VACV Venus inh, Vaccinia mCherry
- CC(=O)c1ccc(Cc2ncc(C(F)(F)F)cc2Cl)s1
  -9.5%, .
- COc1cccc(OCc2cc(C(=O)N3CCN(C4CCCC4)CC3)no2)c1
  -11.9%, -20.3%
- CCOC(=O)c1c(NC(=O)COc2ccccc2)sc(C(C)=O)c1C
  -29.2%, -27.0%
- CCCC[C@@H]1CN=C(N)N1CC(C)(C)C
  -7.1%, i
- Cc1nc2ncnn2c(C)c1CCC(=O)NCc1ccccc1Cl
  9.3%, 5.6%
- COC(=O)CC1(CC(=O)OC)C(=O)N(c2ccccc2)C(=O)N(c2ccccc2)C1=O
  -5.9%, -9.1%
- CCn1c(SCC(=O)Nc2ccc(F)cc2)nnc1C1CC1
  0.0%, i
- O=C(CN(C1CCCCC1)S(=O)(=O)c1ccc(Br)cc1)NCc1ccncc1
  -8.1%, i
- O=C(CSc1nc2ccccc2s1)N1N=C(c2cccs2)CC1c1ccc(F)cc1 (stereo not drawn)
  -24.9%, -4.5%
- CCOC(=O)N1CCC(NC(=O)COc2cc(=O)n(C)c3ccccc23)CC1
  -4.8%, 8.4%
- CS(=O)(=O)N1CCCC(C(=O)Nc2ccccc2C(F)(F)F)C1 (stereo not drawn)
  -1.6%, -13.3%
- CCOC(=O)c1cc2c(=O)n3ccccc3nc2n(CCCOC)c1=NC(=O)c1cc2ccccc2o1
  8.1%, -2.2%
- COc1cc(-c2ccc(NC(=O)CN3CCC(C)CC3)c(OC)c2)ccc1NC(=O)CN1CCC(C)CC1
  -10.3%, -22.1%
- CCc1nc2c(OCc3cc(Cl)cc(Cl)c3)cccn2c1N(C)C(=O)c1cccc(OC)c1
  -11.7%, 32.3%[activator]
- COc1ccc(CN(C)CCCn2ccc(NC(=O)OCc3ccccc3)nc2=O)cc1OC
  -18.4%, -11.6%
- COc1ccc(/C=C/C(=O)NC(=S)NNC(=O)c2cccs2)cc1OC
  -6.1%, ?
- CC(=O)NC(c1cccc(F)c1)c1nc(-c2cnn(C)c2)cs1 (stereo not drawn)
  0.5%, i
- O=C(c1ccccc1Cl)N1CCCCC1CCN1CCOCC1 (stereo not drawn)
  -8.4%, -13.9%
- CCCCn1nnnc1C(c1ccccc1)N1CCN(c2ccccc2)CC1 (stereo not drawn)
  0.3%, 25.9%
- COc1ccc(NC(=O)CN(C)C(=O)c2cc(C)on2)cc1
  -7.7%, i
- CCOC(=O)[C@]12CCC=C1N(Cc1ccc(Cl)cc1Cl)C(=O)[C@H](CC(=O)NCc1ccccc1)C2
  -27.2%, -22.6%
- CCOc1ccc(NC(=O)c2c(NCc3cccnc3)sc3c2CCC(C)C3)cc1 (stereo not drawn)
  -7.3%, -11.5%
- COCCSc1nnc(NC(=O)C2CC(=O)N(C3CCCC3)C2)s1 (stereo not drawn)
  -6.0%, i
- Cc1ccc2c(c1)NC(=O)C(CC(=O)NCCCN1CCN(c3cc(C)ccc3C)CC1)O2 (stereo not drawn)
  -10.2%, -21.9%
- CCc1nnc(SCc2ccc(F)cc2Cl)c2cc3sc(C)cc3n12
  -10.7%, -3.7%
- Cc1ccc(C)c(Cn2c(=O)n(CCCCCC(=O)NCc3ccc4c(c3)OCO4)c(=O)c3sccc32)c1
  -17.0%, -13.9%
- CCn1cc(C(=O)OCC(=O)Nc2cc(OC)cc(OC)c2)c(=O)c2ccc(C)nc21
  -0.5%, 5.8%
- Cc1ccc2cccc(NC(=O)c3ccc(-c4cccc(Cl)c4Cl)o3)c2n1
  3.8%, -2.7%
- CC1CCN(C(=O)CSc2nnc(CNC(=O)COc3ccc(Cl)cc3)o2)CC1
  -8.3%, -16.0%
- CCOC(=O)c1cc2nc(Nc3ccc(OC)cc3)sc2s1
  -15.0%, .

3 of the compounds above, as labelled records:
smiles: O=C(CSc1nc2ccccc2s1)N1N=C(c2cccs2)CC1c1ccc(F)cc1 (stereo not drawn)
  VACV Venus inh = -24.9%	Vaccinia mCherry = -4.5%
smiles: CCOC(=O)N1CCC(NC(=O)COc2cc(=O)n(C)c3ccccc23)CC1
  VACV Venus inh = -4.8%	Vaccinia mCherry = 8.4%
smiles: CS(=O)(=O)N1CCCC(C(=O)Nc2ccccc2C(F)(F)F)C1 (stereo not drawn)
  VACV Venus inh = -1.6%	Vaccinia mCherry = -13.3%

Continuation:
Every second line gives: VACV Venus inh, Vaccinia mCherry
- COc1ccc(-c2cc3c(=O)n(CC(=O)NCc4ccc(F)cc4)ncn3n2)cc1
  -23.8%, -1.8%
- CC(OC(=O)Cc1ccccc1[N+](=O)[O-])C(=O)NC(=O)NC1CCCCC1 (stereo not drawn)
  -25.7%, i
- COc1ccc(Br)cc1CNC(=O)c1cc2c(=O)n(C)c3ccccc3c2s1
  6.0%, -3.8%
- NC(=O)CN(c1ccc([N+](=O)[O-])cc1)S(=O)(=O)c1ccccc1
  -0.1%, -7.3%
- O=C(c1ccc(Cl)c(S(=O)(=O)N2CCCCC2)c1)N1CCN(Cc2ccccc2)CC1
  -24.4%, -22.8%
- Cn1cnnc1SCC(=O)Nc1ccccc1C(=O)NC1CC1
  8.0%, .
- COC(=O)c1c(-c2c(Cl)cccc2Cl)noc1NC(=O)NN1CCOCC1
  14.2%, -8.4%
- O=C(COC(=O)/C=C/c1ccc(Cl)cc1)NCCC1=CCCCC1
  -3.1%, -9.5%
- CN(CC(=O)Nc1ccccc1Cl)CC(=O)Nc1c(F)cccc1F
  -17.3%, -5.0%
- Cc1ccc(-c2nc(CS(=O)CC(=O)NCCc3ccc(Cl)cc3)c(C)o2)cc1 (stereo not drawn)
  -17.2%, -7.1%
- Cc1ccc(S(=O)(=O)NCc2nc3nc(C)cc(C)n3n2)c(C)c1
  -7.4%&-1.0%, -11.8%&-4.0%
- CCCCNC(=O)c1onc(CSc2cccc(OCC)c2)c1C(=O)O
  -6.7%, -18.8%
- CC(OC(=O)CNC(=O)c1ccc2ccccc2c1)C(=O)N(C)C1CCCCC1 (stereo not drawn)
  -16.5%, -14.2%
- Cc1cc(C)c(NC(=O)C(C)n2c(=O)cc(C)c3c(C)nn(-c4ccccc4)c32)c(C)c1 (stereo not drawn)
  0.6%, -8.3%
- C/C(=N\OCC(=O)OCC(=O)NCc1ccccc1)c1ccc2c(c1)OCO2
  -17.6%, -26.2%
- c1ccc(-c2cn3nc4c(nc3n2)CCCC4)cc1
  -10.3%, -9.7%

Screening results as filed in PubChem BioAssay.
